# Screening results as filed in PubChem BioAssay.
# FEN1 inh – human FEN1 inhibition. AID 588795. P39748. 390,000 tested, 0.35% active. Potency, µM (doses to about 114 µM), for inactives: at the top dose activity change, negative = inhibition, actives largely listed as inhibitors. Recombinant FEN1 flap cleavage, fluorescence, 15 min; further: nearly all actives have a fitted effect of over 65% in size
# Target sequence (P39748 whole entry, looked up): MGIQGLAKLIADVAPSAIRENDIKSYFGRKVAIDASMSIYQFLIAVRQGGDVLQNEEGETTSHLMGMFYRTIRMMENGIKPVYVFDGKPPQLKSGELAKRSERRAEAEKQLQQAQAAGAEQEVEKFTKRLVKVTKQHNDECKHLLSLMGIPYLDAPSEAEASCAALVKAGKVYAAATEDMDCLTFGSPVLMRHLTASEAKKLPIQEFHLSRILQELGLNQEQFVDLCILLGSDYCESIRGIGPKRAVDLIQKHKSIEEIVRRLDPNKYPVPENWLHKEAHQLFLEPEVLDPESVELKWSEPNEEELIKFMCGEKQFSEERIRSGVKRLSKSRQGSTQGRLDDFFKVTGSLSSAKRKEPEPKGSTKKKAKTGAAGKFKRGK
#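 FEN1 at 10 nM preincubated with compounds 15 min at room temperature, then flap DNA substrate added at 50 nM final. Signal read at 0 and 15 min; concentration-response fitted with four-parameter Hill equation.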
# TDP1 cell CPT – DT40-hTDP1 cell growth loss with CPT. 420,000 tested, 12% active. AID 686979. Potency, µM (series often up to 46.2 µM), without a hit: at the highest dose activity change, negative = growth inhibition, usual class: inhibitors. chicken DT40 Tdp1-/-;hTDP1 cells + 20 nM CPT, ATP luminescence, 48 h; further: nearly all actives have a fitted effect of over 55% in size
#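 Cell growth measured by CellTiter-Glo luminescence after a minimum 48 h, 37 C compound exposure with 20 nM CPT in Tdp1-knockout DT40 cells stably expressing hTDP1, seeded 400/well; qHTS titration format.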
# Starred values were filed as active, the others as inactive; u = inconclusive. The call rests on the fitted dose curve; in most records, active means well fitted curve in the direction sought with a large enough effect; inconclusive means small, poorly fitted or top-dose-only effect, or another doubt; inactive means no such curve, though single readings can be large; an effect the other way counts as inactive or inconclusive. On the % scale 0 is the no-effect control and ±100 the full control effect; potency means the concentration at half of the fitted maximal effect. The list is partial, and most or all hits are left out here.
SMILES,FEN1 inh,TDP1 cell CPT
COCC1CCN(Cc2nc(-c3cccs3)no2)C1 (stereo not given),2%,0%
CCn1cnc2sc(C(=O)N(Cc3ccc(N(C)C)cc3)Cc3ccco3)c(C)c2c1=O,-14%,u
O=C(C(=O)N1CCN(c2ccc([N+](=O)[O-])cc2)CC1)c1cn(CC(=O)N2CCOCC2)c2ccccc12,5%,u
CCOc1ccc(-n2cnnn2)cc1S(=O)(=O)N1CCCCC1,-6%,-13%
CCCOc1ccc(N2C(=O)CC(NCCc3ccc(S(N)(=O)=O)cc3)C2=O)cc1 (stereo not given),-5%,-4%
Cc1ccc(C)c(N(Cc2ccccc2F)S(C)(=O)=O)c1,-7%,-10%
Cc1nn(C(C)C(=O)NCc2cccs2)c(=O)c2nn(-c3ccccc3)c(C)c12 (stereo not given),0%,u
CCc1ccccc1NC(=O)Nc1cnccn1,3%,13%
COc1ccccc1N1CCN(C(=O)c2ccc3[nH]c4c(c3c2)CC(C)CC4)CC1 (stereo not given),-15%,16µM*
CC(C)c1c(O)c2c(n(-c3ccccc3)c1=O)CCCC2,1%,-1%
COc1ccccc1NC(=O)CSc1nnc(Cc2cc(=O)[nH]c(=O)[nH]2)n1-c1ccccc1,5%,15%
Cc1cc(=O)[nH]c(N2CCN(Cc3ccccc3)CC2)n1,-16%,-16%
CC1Cc2nc(SCC(=O)Nc3ccc4c(c3)OCO4)n(Cc3ccccc3)c(=O)c2S1 (stereo not given),-2%,16µM*
COc1ccc(OCc2cc(C(=O)NC(C)Cc3ccccn3)no2)c(Cl)c1 (stereo not given),9%,u
CSc1nn(-c2ccc(C(=O)OC(C(=O)NC(N)=O)C(C)C)cc2)c(=S)s1 (stereo not given),14%,-21%
COc1cc(S(=O)(=O)NCc2ccncc2)ccc1Br,-1%,8.2µM*
O=C(Cc1nnc(NC(=O)Nc2ccccc2)s1)Nc1ccccc1,-7%,-1%
COc1cccc(C(=O)Nc2ccc(NC(=O)C3CC=CCC3C(=O)O)cc2)c1 (stereo not given),-1%,2%
COc1ccc(C(C(=O)NCC2CCCO2)N(Cc2ccc(F)cc2)C(=O)CNC(=O)c2ccco2)cc1OC (stereo not given),-16%,3%
NC1=C(O)C(=O)C(c2ccccc2)O1 (stereo not given),-23%,-9%
Cc1cccc(CC2S/C(=N/N=C/c3ccco3)NC2=O)c1 (stereo not given),-4%,9%
Cc1cc(C(=O)N/N=C/C=C/c2ccc([N+](=O)[O-])cc2)n[nH]1,-18%,-23%
O=C(NC(=S)Nc1ccc(CN2CCOCC2)cc1)c1cc2ccccc2o1,-17%,u
CC(=O)Nc1ccccc1N(CC(O)Cn1c2ccccc2c2ccccc21)S(=O)(=O)c1ccc(C)cc1 (stereo not given),-5%,u
COc1ccc(C2(CNC(=O)c3cccc([N+](=O)[O-])c3)CCCCC2)cc1OC,8%,16µM*
Cc1ccc(CSCCNC(=O)c2ccc(Cl)c(S(=O)(=O)N3CCOCC3)c2)cc1,-22%,u
Cn1c(=O)c2c(ncn2CCc2ccccc2)n(C)c1=O,-15%,2%
CNC(=O)C1C(=S)NC(N)=C(C#N)C1c1ccccc1 (stereo not given),8%,26µM*
Cc1ccc(C(=O)NCCSC(C)(C)C)cc1[N+](=O)[O-],5%,u
CC(=O)Oc1ccc(N2C(=O)C3C4C=CC(CO)(O4)C3C2=O)cc1 (stereo not given),9%,2.6µM*
COc1ccc(S(=O)(=O)N2CCN(C(=O)c3ccc(=O)[nH]n3)CC2)cc1OC,-7%,1%
CC(C)NC(=O)c1onc(CSc2ccc(Cl)cc2)c1C(=O)NC(C)C,0%,u
O=[N+]([O-])c1ccc(N2CCC(O)CC2)nc1,5%,u
COc1cc(C(=O)N2CCN(S(=O)(=O)c3ccc(C)cc3)CC2)ccc1OCc1c(C)noc1C,-6%,-20%
COc1ccc(-c2nc(SCC(=O)Nc3nccs3)c(-c3ccc(Cl)cc3)[nH]2)cc1,-5%,u
CC(C)OC(=O)Nc1ccc2c(c1)N(C(=O)CCN1CCN(CCO)CC1)c1ccccc1CC2,1%,2%
COc1ccc2[nH]c(CN3CCN(CC=C(C)C)C(CCO)C3)c(C)c2c1 (stereo not given),6%,0%
CO/N=C(\c1ccccc1)c1cccnc1,3%,-2%
CSc1ccccc1NC(=O)Cc1ccccc1,3%,-12%
Cc1cc(C)nc(SCC(=O)Nc2ccc(Br)cn2)n1,-7%,-7%
CN(Cc1ccc2ccccc2c1)C(=O)c1ccc(C(F)(F)F)cc1,-22%,-2%
Cc1ccc(N(CC(=O)N2CCOCC2)S(=O)(=O)c2ccccc2)cc1,-14%,1%
CCN1CCC(NC(=O)Nc2cc(Cl)ccc2OC)CC1,5%,-4%
Cc1nc2ccc(F)cc2cc1C(=O)NC(C)C,-2%,-10%
CCCCC(C)n1[nH]c(=O)c2c(C)cc(C)nc21 (stereo not given),4%,1%
N#CCSc1nnc(-c2cnccn2)n1Cc1ccccc1,-4%,-18%
CS(=O)(=O)c1ccc(Cl)c(NC(=O)C2CC(=O)N(Cc3ccco3)C2)c1 (stereo not given),0%,-2%
O=C(Cc1cccs1)NCCn1ccc2ccccc21,12%,-9%
O=c1c2ccccc2nnn1CSc1ccc2c(c1)OCCO2,-16%,3%
CC(C)CCN1CCN(CC(c2ccccc2)c2ccccc2)CC1CCO (stereo not given),-2%,23µM*
CC1(C)CC(=O)c2c(Cc3ccccc3)n[nH]c2C1,-16%,7%
CCCC(C(=O)NCCC(C)C)N(Cc1ccc(F)cc1)C(=O)c1snc(C(N)=O)c1N (stereo not given),0%,u
COCCC(=O)N1CCCC(CNS(=O)(=O)c2ccc(OC)cc2)C1 (stereo not given),18%,-15%
COc1ccc(CNS(=O)(=O)c2cc(-c3cc(C)no3)ccc2C)cc1OC,-15%,-26%
CCCSc1nc2c(c(=O)n1CC)SC(C)C2 (stereo not given),-18%,-25%
COC(=O)c1ccc(-n2nc(C(F)(F)F)c3c2-c2ccoc2CC3)cc1,-21%,-19%
CCCC(O)(CCN1CCOCC1)c1ccc(Br)cc1 (stereo not given),-10%,u
CC(C)Oc1ccc(C2C(C(=O)c3ccco3)=C(O)C(=O)N2Cc2cccnc2)cc1 (stereo not given),-10%,-28%
CCOC(=O)c1sc2c(c1C)c(=O)n(CCO)c(=O)n2Cc1ccccc1,-5%,15µM*
O=C(Nc1ccc(S(=O)(=O)N2CCCC2)cc1)c1cccc(OC(F)F)c1,-12%,-15%

# Entries shown so far that contain fluorine:
SMILES,FEN1 inh,TDP1 cell CPT
Cc1ccc(C)c(N(Cc2ccccc2F)S(C)(=O)=O)c1,-7%,-10%
COc1ccc(C(C(=O)NCC2CCCO2)N(Cc2ccc(F)cc2)C(=O)CNC(=O)c2ccco2)cc1OC (stereo not given),-16%,3%
CN(Cc1ccc2ccccc2c1)C(=O)c1ccc(C(F)(F)F)cc1,-22%,-2%
Cc1nc2ccc(F)cc2cc1C(=O)NC(C)C,-2%,-10%
CCCC(C(=O)NCCC(C)C)N(Cc1ccc(F)cc1)C(=O)c1snc(C(N)=O)c1N (stereo not given),0%,u
COC(=O)c1ccc(-n2nc(C(F)(F)F)c3c2-c2ccoc2CC3)cc1,-21%,-19%
O=C(Nc1ccc(S(=O)(=O)N2CCCC2)cc1)c1cccc(OC(F)F)c1,-12%,-15%

# In another format: two of the compounds above.
molecule	FEN1 inh	TDP1 cell CPT
CC(C)Oc1ccc(C2C(C(=O)c3ccco3)=C(O)C(=O)N2Cc2cccnc2)cc1 (stereo not given)	-10%	-28%
CCCC(O)(CCN1CCOCC1)c1ccc(Br)cc1 (stereo not given)	-10%	u

# (cont.)
SMILES,FEN1 inh,TDP1 cell CPT
O=S(=O)(Nc1ccc(Oc2ncccn2)c(Cl)c1)c1ccc(F)cc1,0%,u
COc1ccc(CN(CC(=O)NCCc2ccccc2)C(=O)CCC(=O)Nc2ccccn2)cc1,2%,5%
COc1ccc(NC(C)C(=O)N/N=C/c2ccc([N+](=O)[O-])s2)cc1 (stereo not given),0%,16µM*
CCOC(=O)[C@H]1[C@H]2COc3ccc(Br)cc3[C@@H]2N2C(=O)c3cc(OC)c(OC)cc3NC(=O)[C@@]12C,-29%,u
CN(Cc1cnccn1)Cc1nc(Cc2cccc(F)c2)no1,-1%,11%
COCC1CCN(C(=O)C2CCC(=O)N(CCc3cccc(F)c3)C2)CC1 (stereo not given),9%,-3%
CS(=O)(=O)c1ccc(C(=O)N2CCN(C(=O)c3ccco3)CC2)cc1,-6%,2%
C=CCSc1nc2sc3c(c2c(=O)n1-c1ccccc1)CCN(C)C3,-14%,u
COc1ccc(C(=O)OC(COc2ccccc2)Cn2ccnc2)cc1 (stereo not given),5%,-12%
O=C(CCC1CCCCC1)NCCS(=O)(=O)N1CCN(c2ccccc2)CC1,-1%,u
COC(=O)c1cc(OC)c(OC)cc1NC(=O)Nc1ccccc1F,5%,-2%
Cc1cc(C)c(S(=O)(=O)N2CCCOC2CNC(=O)C(=O)NCc2ccccn2)c(C)c1 (stereo not given),-2%,5%
Cn1c(CN2CCOCC2)nnc1SCC(=O)Nc1nccs1,-5%,-1%
COc1ccc(CC(=S)N2CCOCC2)cc1F,3%,-14%
COc1ccc2cc(C(=O)C3CCCN(Cc4cccc(C)n4)C3)ccc2c1 (stereo not given),-10%,2.6µM*
CCOC(=O)CSc1nnc2n(C3CCCCC3)c(=O)c3c4c(sc3n12)CCCC4,-17%,u
COc1ccc(S(=O)(=O)N2CCCC2C(=O)Nc2ccc(C(C)=O)cc2)cc1 (stereo not given),17%,u
Cc1csc(=Nc2cccnc2)n1Cc1ccco1,-1%,-2%
COc1ccc(N2C(=O)C(CC(=O)Nc3ccc(F)cc3)N(CCc3ccc(OC)c(OC)c3)C2=O)cc1 (stereo not given),-4%,-14%
COc1cccc(CNc2ccc3c(c2)ncn3C(C)C)c1OC,-15%,u
CCO[C@H]1OC(C(=O)Nc2ccccc2)=C[C@@H](c2ccc(Br)cc2)[C@@H]1CCCO,-3%,16µM*
COc1cccc(NS(=O)(=O)c2ccc(NC(C)=O)cc2)c1,-5%,u
O=C(Nc1ccccc1)N(CCCN1CCOCC1)Cc1cc2cc3c(cc2[nH]c1=O)OCCO3,0%,u
COC(=O)c1ccsc1NC(=O)CN1CCN(Cc2ccc3c(c2)OCO3)CC1,-5%,u
CSC1=C(C#N)C(CC(C)C)C2=C(CCCC2=O)N1 (stereo not given),-9%,u
CC(=O)c1ccc(N2CCN(c3ccc(S(=O)(=O)NCCN(C)C)cc3[N+](=O)[O-])CC2)cc1,14%,u
CS(=O)(=O)c1ccc(C(=O)Nc2cc(S(C)(=O)=O)ccc2Cl)cc1,-13%,2%
O=C(O)C1CC(=O)N(c2ccc(OCc3ccccc3)cc2)C1 (stereo not given),13%,-15%
CCC(C)NC(=O)NC1C(NC(=O)NC(C)CC)N(C)C(=O)N1C (stereo not given),5%,-11%
CCOCCCNC(=O)N1CCOCC1,3%,-14%

# Some values from the list:
# FEN1 inh, CC(=O)c1ccc(N2CCN(c3ccc(S(=O)(=O)NCCN(C)C)cc3[N+](=O)[O-])CC2)cc1 is entered as 14%
# FEN1 inh, COC(=O)c1ccsc1NC(=O)CN1CCN(Cc2ccc3c(c2)OCO3)CC1 is entered as -5%

# Single records (already shown). Values in the order: FEN1 inh | TDP1 cell CPT
# Listed for COc1cccc(CNc2ccc3c(c2)ncn3C(C)C)c1OC → -15% | u
# Listed for O=C(Nc1ccccc1)N(CCCN1CCOCC1)Cc1cc2cc3c(cc2[nH]c1=O)OCCO3 → 0% | u
# Listed for CCOC(=O)CSc1nnc2n(C3CCCCC3)c(=O)c3c4c(sc3n12)CCCC4 → -17% | u
# Listed for O=C(O)C1CC(=O)N(c2ccc(OCc3ccccc3)cc2)C1 (stereo not given) → 13% | -15%

# Next structures follow.
SMILES,FEN1 inh,TDP1 cell CPT
C=CCn1c(SCC(=O)NCCO)nc2sc(C)c(C)c2c1=O,-14%,4%
CCn1c(-c2cc(C3CC3)nc3ccccc23)n[nH]c1=S,12%,-23%
O=C(CCc1ccccc1)NNC(=O)c1ccco1,-10%,-15%
CNC(=O)CC1C(=O)N(C)C(=S)N1NC(=O)c1ccccc1 (stereo not given),5%,22%
COc1ccc2oc(C(=O)NC3(C)CCS(=O)(=O)C3)c(C)c2c1 (stereo not given),1%,-6%
Cc1cc(C)cc(C(=O)Nc2ccc(NC(=O)c3cccs3)cc2)c1,-7%,u
COc1ccc(CCNC(=O)CCN2C(=O)C(C)Oc3ccc(C)cc32)cc1OC (stereo not given),10%,-30%
Cc1ccc(C)c(NC(=O)CN(C)C(=O)c2cc([N+](=O)[O-])ccc2N2CCOCC2)c1,6%,-11%
O=C(c1ccccc1C(=O)N1CCN(c2ccccc2F)CC1)N1CCN(c2ccccc2F)CC1,-1%,18µM*
CC(C)COP(=O)(c1ccc(N(C)C)cc1)C(O)c1ccc(N(C)C)cc1 (stereo not given),6%,-28%
Cc1ccc(SCC(=O)N(C)C2CCS(=O)(=O)C2)cc1 (stereo not given),7%,-20%
COc1ccc(CCN2CC(C(=O)NCCc3cn[nH]c3)CCC2=O)cc1 (stereo not given),0%,-13%
Cc1cc(C)n(C2CC(=O)N(c3cc(Cl)cc(Cl)c3)C2=O)n1 (stereo not given),-14%,6%
COc1ccc(/C=C(/NC(=O)c2ccccc2)C(=O)N2CCOCC2)cc1OC,14%,10%
CN1CCN(CCNC(=O)c2cn(Cc3ccccc3F)nn2)CC1,2%,1%
OC(COCc1ccco1)CN1CCN(c2ccccc2)CC1 (stereo not given),-7%,-7%
O=S(=O)(c1ccc2c(c1)OCO2)N1CCN(c2nnnn2-c2ccccc2)CC1,-21%,u
